A647 fluor: compound fluoresces in the A647 spectral region; Compound fluorescence, A647 channel (570/671 nm), Tris buffer; max dye-equivalent concentration, M; 59,000 tested, under 10 active; AID 592; active means above 1 µM dye equivalent; inconclusive means 0.1 to 1 µM; inactive means 0.1 µM or less;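 further: values scaled relative to a standard on each plate; highest value over a series up to 38 µM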
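Fluorescence read (570 nm ex, 671 nm em) after 15 min RT incubation of compounds in 100 mM Tris buffer, pH 8.0; values expressed as dye-equivalent concentration against a six-point A647 standard series on each plate.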
AID923: qHTS Assay for Allosteric/Competitive Inhibitors of Caspase-1: Spectroscopic Profiling in AFC Spectral Region; compound fluorescence, AFC spectral region (405/520 nm); almost no hit is shown here; Potency, µM (doses to about 57.5 µM), inactives show top-dose fluorescence increase, usual class: activators; hit rate 1.1% among 75,000; AID 923, 2007; active means well fitted activation curve with a large enough effect; inconclusive means small, poorly fitted or top-dose-only effect;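 further: potency means the concentration at half of the fitted maximal effect; 0% is about no effect; scaled to a free AFC standard on each plate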
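Titrations up to 57 uM read every 20 sec for 3 min (405/520 nm) with 50 nM caspase 1 and 5 uM Ac-WEHD-AFC, pH 7.5 HEPES buffer. Fluorescence-vs-time intercept gave baseline, scaled against on-plate AFC standard.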
A488 fluor: compound autofluorescence in A488 spectral region | compound autofluorescence, A488 spectral region, dye equivalency; stronger effect = higher value | max dye equivalency, M | hit rate 0.1% among 59,000; active = above 10 nM dye equivalent; inconclusive = 1 to 10 nM; inactive = 1 nM or less; about half of its hits are not listed in these tables;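 further: highest value over a series up to 38 µM; compound alone in buffer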
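Intrinsic compound fluorescence is measured in 100 mM Tris buffer at pH 8.0 following 15 min incubation at room temperature. Intensities at 480 nm excitation/540 nm emission are calibrated to an on-plate A488 concentration series, giving dye-equivalent concentrations.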
Resorufin fluor: resorufin region autofluorescence; Compound fluorescence, resorufin region 547/598 nm, buffer; stronger effect = higher value; max dye-equivalent concentration, M; hit rate 0.04% among 59,000; AID 588; active = above 10 nM dye equivalent; inconclusive = 1 to 10 nM; inactive = 1 nM or less; a few of its hits are not listed in these tables; further: highest value over a series up to 38 µM
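Dye-equivalent concentration values derive from comparing each well's 547/598 nm fluorescence against resorufin standards included on every plate. Incubation was 15 min at room temperature in 100 mM Tris, pH 8.0.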
TSHR ag: TSH receptor (human) agonism; P16473; HEK293-CNG-TSHR cells (CNG channel as cAMP sensor), membrane potential dye, cAMP; Potency, µM (titrated, usually from 57.1 µM), without a hit: top-dose activation, usual class: activators; hit rate 0.48% among 73,000; AID 926; active = well fitted activation curve of enough size with the parental cells flat; inconclusive = any curve in the parental cells; inactive = parental cells flat and receptor cells flat or falling; further: potency means the concentration at half of the fitted maximal effect; % of control where 0% means no effect; weak receptor curves with flat parental cells got no call and are not listed
Target sequence (P16473 whole entry, looked up): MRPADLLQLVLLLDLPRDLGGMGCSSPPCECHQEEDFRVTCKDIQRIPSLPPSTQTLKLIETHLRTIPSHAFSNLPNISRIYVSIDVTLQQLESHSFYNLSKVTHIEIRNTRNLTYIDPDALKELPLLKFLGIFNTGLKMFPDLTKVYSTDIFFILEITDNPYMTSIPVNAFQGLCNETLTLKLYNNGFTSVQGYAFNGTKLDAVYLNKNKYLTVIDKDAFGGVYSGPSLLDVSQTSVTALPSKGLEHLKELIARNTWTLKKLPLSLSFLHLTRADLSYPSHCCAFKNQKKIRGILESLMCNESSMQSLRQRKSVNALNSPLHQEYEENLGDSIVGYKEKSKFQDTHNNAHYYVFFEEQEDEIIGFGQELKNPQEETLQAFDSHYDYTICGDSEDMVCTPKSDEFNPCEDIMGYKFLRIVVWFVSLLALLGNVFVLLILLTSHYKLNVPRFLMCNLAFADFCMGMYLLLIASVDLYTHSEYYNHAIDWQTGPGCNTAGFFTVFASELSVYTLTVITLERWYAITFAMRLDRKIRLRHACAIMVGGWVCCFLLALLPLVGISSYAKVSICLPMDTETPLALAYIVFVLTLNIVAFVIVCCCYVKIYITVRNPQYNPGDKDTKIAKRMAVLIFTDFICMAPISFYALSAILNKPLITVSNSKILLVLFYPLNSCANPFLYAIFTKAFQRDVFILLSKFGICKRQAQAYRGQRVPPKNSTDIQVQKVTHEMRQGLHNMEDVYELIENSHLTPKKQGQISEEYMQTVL
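HEK 293 cells stably expressing TSHR and a cAMP-gated CNG channel; parental CNG-only cells as counterscreen. Cells preloaded 60 min with membrane potential dye plus 100 uM RO 20-1724, then compound 30 min; fluorescence read at 590 nm.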
Active calls of the source: *; i = inactive; u = inconclusive; x = not tested or not shown; & = joins results of further samples; [ ] = another dose, or the depositor's remark. These rows are one share of the data; the hit share may differ from the screen's.

cpd | Molecule | A647 fluor | AID923 | A488 fluor | Resorufin fluor | TSHR ag
1 | CC(C)NNC(=O)c1ccncc1 | 3.7e-09&1.2e-09 | 1.7% | i | i | -17%[25.6 µM]
2 | COc1cc(C=O)ccc1O | x | -2.7% | x | x | 0%
3 | CCN(CCCCOC(=O)c1ccc(OC)c(OC)c1)C(C)Cc1ccc(OC)cc1 (centres undefined) | 6.1e-09 | -0.2% | i | i | x
4 | CCCCCCCCCCCCCCCC(O)C(N)CO (centres undefined) | 1e-09 | x | i | i | x
5 | CCc1cccc(CC)c1NC(=O)CN(CC(=O)O)CC(=O)O | 1e-09 | 0.7%[25.7 µM] | i | i | u
6 | CCCCNCC | x | 1.3% | x | x | u
7 | CCCOc1ccc2nc(NC(=O)OC)[nH]c2c1 | 2.5e-08 | -0.4% | i | i | x
8 | Cc1onc(-c2ccccc2Cl)c1C(=O)N[C@H]1C(=O)N2[C@H]1SC(C)(C)[C@H]2C(=O)O | 1e-09 | 1.3%[25.7 µM] | i | i | -17%[25.6 µM]
9 | Cc1scc2c1N(C(=O)CN1CCN(C)CC1)c1ccccc1NC2=O | 5.4e-09&5.9e-09 | 1.3% | i | i | 12%&2%
10 | N=c1nc(N2CCCCC2)cc(N)n1O | 1e-09&4.1e-08&2e-08 | -2.3% | i | i | u
11 | COc1ccc(C(=O)c2ccccc2)c(O)c1 | 1e-09&1.5e-08 | -1.9% | i | i | 11%
12 | CCCC(=O)O[C@]1(C(=O)CCl)[C@@H](C)C[C@H]2[C@@H]3CCC4=CC(=O)C=C[C@]4(C)[C@@]3(F)C(=O)C[C@@]21C | 6.1e-09 | x | i | i | x
13 | Cc1cc(Cn2cnc3c2C[C@@H](C(=O)O)N(C(=O)C(c2ccccc2)c2ccccc2)C3)ccc1N(C)C | x | -2.1% | x | x | 3%
14 | COC(=O)c1ccccc1O | x | -0.5% | x | x | u
15 | CC[C@]1(O)C[C@H]2CN(CCc3c([nH]c4ccccc34)[C@](C(=O)OC)(c3cc4c(cc3OC)N(C)[C@@H]3[C@](O)(C(=O)OC)[C@H](OC(C)=O)[C@]5(CC)C=CCN6CC[C@]43[C@@H]65)C2)C1 | 1.9e-09 | -6.6% | i | i | x
16 | CCN(CC)CCOc1ccc(Cc2ccccc2)cc1 | x | 7.1% | x | x | 27%
17 | C[C@H](N)C1CCC(C(=O)Nc2ccncc2)CC1 (some centres undefined) | 1.1e-08 | 0.2% | i | i | u
18 | CCCOc1ccc(C(=O)OCCN(CC)CC)cc1N | 4.2e-08 | 2.2%[25.7 µM] | i | i | -7%[25.6 µM]
19 | O=C1c2c(O)ccc(O)c2C(=O)c2c(NCCNCCO)ccc(NCCNCCO)c21 | 8.1e-09&4.9e-08 | -3.4% | i | i | -20%[25.6 µM]
20 | CCCCN(CCCC)CCCOC(=O)c1ccc(N)cc1 | 1e-09&8e-09 | -1.9% | i | i | 2%[25.6 µM]
21 | CCCCCCCCCCCCCCC[C@@H](O)[C@@H](N)CO | x | -0.4% | x | x | -12%
22 | Cc1c(C(=O)O)c(O)cc2c1C(=O)c1c(O)c([C@@H]3O[C@H](CO)[C@@H](O)[C@H](O)[C@@H]3O)c(O)c(O)c1C2=O | 1e-09 | x | i | i | -2%
23 | CN(C)C/C=C(\c1ccc(Br)cc1)c1cccnc1 | 1.6e-08&5.4e-09&6.1e-08 | -1.8%[11.5 µM] | i | i | 3%[11.4 µM]
24 | CCCC(=O)O[C@]1(C(=O)COC(C)=O)CC[C@H]2[C@@H]3C[C@H](F)C4=CC(=O)C=C[C@]4(C)[C@@]3(F)[C@@H](O)C[C@@]21C | 1e-09 | x | i | i | x
25 | Nc1ncnc2c1c(-c1ccc(Oc3ccccc3)cc1)cn2C1CCCC1 | 6.4e-08 | -2.4% | i | i | 14%
26 | CC(C)(CO)[C@H](O)C(=O)NCCCO | 2.5e-09 | 2.6%[25.7 µM] | i | i | 1%[25.6 µM]
27 | CCc1ccccc1OC[C@@H](O)CN[C@H]1CCCc2ccccc21 | x | -3.2% | x | x | u
28 | Cn1ccc2cc3c(cc21)CCN3C(=O)Nc1cccnc1 | 1e-09 | -1.6%&-0.8% | i | i | -14%&-11%
29 | CC1(C)O[C@@H]2C[C@H]3[C@@H]4C[C@H](F)C5=CC(=O)C=C[C@]5(C)[C@@]4(F)[C@@H](O)C[C@]3(C)[C@]2(C(=O)CO)O1 | 2.6e-08 | x | i | i | x
30 | CN[C@@H]1[C@H](O)[C@H](NC)[C@@H]2O[C@]3(O)C(=O)C[C@@H](C)O[C@H]3O[C@@H]2[C@H]1O | 2.3e-08 | x | i | i | 1%
31 | Cc1cc(=O)oc2cc(O)ccc12 | 4.1e-09 | 21%[25.7 µM] | i | i | -5%[25.6 µM]
32 | COc1cc(N)c(Cl)cc1C(=O)N[C@H]1CCN(CCCOc2ccc(F)cc2)C[C@H]1OC | 4.2e-08 | -3.2%[25.7 µM] | i | i | -30%[25.6 µM]
33 | COc1cc2nc(N3CCN(C(=O)[C@@H]4COc5ccccc5O4)CC3)nc(N)c2cc1OC | 3.3e-08 | -1.6%[25.7 µM] | i | i | -7%[25.6 µM]

Some of the entries above, set out differently.
Fields: A647 fluor, AID923, A488 fluor, Resorufin fluor, TSHR ag
(15) CC[C@]1(O)C[C@H]2CN(CCc3c([nH]c4ccccc34)[C@](C(=O)OC)(c3cc4c(cc3OC)N(C)[C@@H]3[C@](O)(C(=O)OC)[C@H](OC(C)=O)[C@]5(CC)C=CCN6CC[C@]43[C@@H]65)C2)C1
→ 1.9e-09, -6.6%, i, i, x
(16) CCN(CC)CCOc1ccc(Cc2ccccc2)cc1
→ x, 7.1%, x, x, 27%
(17) C[C@H](N)C1CCC(C(=O)Nc2ccncc2)CC1 (some centres undefined)
→ 1.1e-08, 0.2%, i, i, u
(18) CCCOc1ccc(C(=O)OCCN(CC)CC)cc1N
→ 4.2e-08, 2.2%[25.7 µM], i, i, -7%[25.6 µM]
(19) O=C1c2c(O)ccc(O)c2C(=O)c2c(NCCNCCO)ccc(NCCNCCO)c21
→ 8.1e-09&4.9e-08, -3.4%, i, i, -20%[25.6 µM]
(20) CCCCN(CCCC)CCCOC(=O)c1ccc(N)cc1
→ 1e-09&8e-09, -1.9%, i, i, 2%[25.6 µM]
(21) CCCCCCCCCCCCCCC[C@@H](O)[C@@H](N)CO
→ x, -0.4%, x, x, -12%
(22) Cc1c(C(=O)O)c(O)cc2c1C(=O)c1c(O)c([C@@H]3O[C@H](CO)[C@@H](O)[C@H](O)[C@@H]3O)c(O)c(O)c1C2=O
→ 1e-09, x, i, i, -2%
(23) CN(C)C/C=C(\c1ccc(Br)cc1)c1cccnc1
→ 1.6e-08&5.4e-09&6.1e-08, -1.8%[11.5 µM], i, i, 3%[11.4 µM]
(24) CCCC(=O)O[C@]1(C(=O)COC(C)=O)CC[C@H]2[C@@H]3C[C@H](F)C4=CC(=O)C=C[C@]4(C)[C@@]3(F)[C@@H](O)C[C@@]21C
→ 1e-09, x, i, i, x
(25) Nc1ncnc2c1c(-c1ccc(Oc3ccccc3)cc1)cn2C1CCCC1
→ 6.4e-08, -2.4%, i, i, 14%
(26) CC(C)(CO)[C@H](O)C(=O)NCCCO
→ 2.5e-09, 2.6%[25.7 µM], i, i, 1%[25.6 µM]
(27) CCc1ccccc1OC[C@@H](O)CN[C@H]1CCCc2ccccc21
→ x, -3.2%, x, x, u
(28) Cn1ccc2cc3c(cc21)CCN3C(=O)Nc1cccnc1
→ 1e-09, -1.6%&-0.8%, i, i, -14%&-11%
(29) CC1(C)O[C@@H]2C[C@H]3[C@@H]4C[C@H](F)C5=CC(=O)C=C[C@]5(C)[C@@]4(F)[C@@H](O)C[C@]3(C)[C@]2(C(=O)CO)O1
→ 2.6e-08, x, i, i, x
(30) CN[C@@H]1[C@H](O)[C@H](NC)[C@@H]2O[C@]3(O)C(=O)C[C@@H](C)O[C@H]3O[C@@H]2[C@H]1O
→ 2.3e-08, x, i, i, 1%
(31) Cc1cc(=O)oc2cc(O)ccc12
→ 4.1e-09, 21%[25.7 µM], i, i, -5%[25.6 µM]

Screens: PubChem, National Center for Advancing Translational Sciences (NCATS)
